Source: PubChem
B2AR ag – agonists of human beta-2 adrenergic receptor inducing internalization; P07550; Am2.2-beta2AR cells, FAP receptor internalization, flow cytometry; reference of the scale not given here; response, % (concentration not given with the values); 340,000 tested, 0.43% active;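 active means response above a set limit, near 3 SD of response in nonfluorescent compounds, cut at about 42% in these data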;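 further: stock transfer was 100 nL into about 11 µL; a reference agonist was the positive control; negative values mostly stem from fluorescent compounds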
FGF22 binding – FGF22 (human) thermal shift binding; recombinant FGF22 thermal shift, SYPRO orange fluorescence; percent of sucrose octasulfate shift, DMSO zero; calls only at 9.99 µM; 340,000 tested, 1.5% active; Q9HCT0; AID 651658;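 active means melting point raised past a set limit in the mean and every replicate; three in four hits are not shown here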
ALR H2O2 inh – inhibitors of human sulfhydryl oxidase ALR; P55789; purified ALR, DTT oxidation, H2O2 HRP-luminol luminescence; inhibition, % (test concentration not listed); 290,000 tested, 3.8% active;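 active means mean and each replicate at 75% or more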;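 further: stock transfer was 7.5 nL into about 7.5 µL; 0% = neutral wells and 100% = wells with inactivated enzyme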
Target sequence (P55789 whole entry, looked up): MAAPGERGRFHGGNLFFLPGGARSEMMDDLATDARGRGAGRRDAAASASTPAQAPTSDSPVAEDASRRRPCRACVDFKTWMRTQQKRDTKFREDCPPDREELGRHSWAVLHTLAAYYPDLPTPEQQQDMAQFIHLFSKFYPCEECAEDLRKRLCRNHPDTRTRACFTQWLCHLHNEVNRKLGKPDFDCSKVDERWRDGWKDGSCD
HNF4A DNA FP – change in binding of human HNF4 alpha to DNA; P41235; activity change, % at 10 µM; 360,000 tested, 0.3% active; HNF4a-FITC DNA binding, fluorescence polarization, 1 h; AID 1224865; in the data active means activity change above about 30%, passing the limit was not always enough;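 further: controls were the assay level and a saturating level of protein; the project sought stronger binding though the title names inhibitors; some compounds called inactive have numbers as strong as hits; positive values seem to mean higher polarization but the record does not say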
Target sequence (P41235 whole entry, looked up): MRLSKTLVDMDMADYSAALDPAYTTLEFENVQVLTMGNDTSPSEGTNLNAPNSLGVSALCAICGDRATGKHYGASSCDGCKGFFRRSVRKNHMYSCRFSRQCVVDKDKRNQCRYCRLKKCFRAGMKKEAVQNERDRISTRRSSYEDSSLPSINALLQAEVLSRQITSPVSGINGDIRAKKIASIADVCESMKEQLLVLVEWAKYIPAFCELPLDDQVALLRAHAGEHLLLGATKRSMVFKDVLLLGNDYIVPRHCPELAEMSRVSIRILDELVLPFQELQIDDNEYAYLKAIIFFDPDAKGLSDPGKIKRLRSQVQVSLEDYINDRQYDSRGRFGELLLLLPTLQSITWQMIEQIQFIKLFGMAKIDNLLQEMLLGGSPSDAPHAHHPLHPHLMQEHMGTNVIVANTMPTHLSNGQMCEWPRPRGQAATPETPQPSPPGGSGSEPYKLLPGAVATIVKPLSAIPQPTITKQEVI
Ecoli rRNA inh – selective bacterial rRNA inhibition in E. coli. E. coli WT GFP vs humanized-ribosome RFP mutants, fluorescence, 24 h; stronger effect = lower value; DMSO median 0, no signal -100. GFP signal change (wild-type ribosome), % (test concentration not listed). 350,000 tested, 1.6% active. AID 720706;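 active means significant combined selectivity score with lowered wild-type GFP, culture density cut under 30%, mutant RFP and density less affected; inactive means any of these conditions unmet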; further: one replicate is shown; some compounds called inactive have numbers as strong as hits
E coli growth – inhibitors of Escherichia coli growth; 330,000 tested, 0.21% active; OD600, 23 h; stronger effect = lower value; OD600 absorbance (no concentration beside the values); AID 1053175;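 active means OD600 absorbance below the run mean of sample wells minus 3.6 SD, in any replicate, cut at about 0.56 in these data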;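 further: stock transfer was 300 nL into about 60 µL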
UCH37 DUB inh – inhibitors of human deubiquitinating enzyme UCH37; purified proteasome/UCH37, Ub-AMC cleavage fluorescence; inhibition, % (concentration not given with the values); 330,000 tested, 0.33% active;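 active means mean of two replicates above 20%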;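 further: 0% = compound-free wells with enzyme and 100% = wells lacking proteasome; stock transfer was 100 nL into about 20 µL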
Target sequence (Q9Y5K5 whole entry, looked up): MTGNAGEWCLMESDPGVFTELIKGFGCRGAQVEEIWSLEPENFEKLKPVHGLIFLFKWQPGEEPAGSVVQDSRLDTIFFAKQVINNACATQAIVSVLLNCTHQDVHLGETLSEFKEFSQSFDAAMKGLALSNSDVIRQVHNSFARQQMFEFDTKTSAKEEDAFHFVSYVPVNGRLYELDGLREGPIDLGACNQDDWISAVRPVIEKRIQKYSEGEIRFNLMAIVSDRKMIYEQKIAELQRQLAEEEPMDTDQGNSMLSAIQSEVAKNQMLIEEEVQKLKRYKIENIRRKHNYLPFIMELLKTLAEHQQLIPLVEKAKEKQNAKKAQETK
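assay system = human UCH37 enzyme supplied as purified proteasome complex | amount = proteasome at 0.15 nM in the dispensed enzyme solution | schedule = 30 min compound-proteasome preincubation then 25 min substrate reaction, room temperature | measured by = fluorescence, ex 355 nm, em 460 nm | benchmarks = no-proteasome wells (full inhibition) and compound-free wells (no inhibition)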
Ecoli rRNA inh OD600 – further read-out of Ecoli rRNA inh, marked with its call; OD600 change, %; measured here: OD600 growth;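 optical density of the mix in the first replicate; 0 = DMSO median and -100 = no signal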
Ecoli rRNA inh RFP – recorded beside Ecoli rRNA inh, whose call it bears; RFP signal change, %; measured here: RFP humanized mutant strains;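 first replicate; 0 = DMSO median and -100 = no signal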
Numbers without * were called inactive; i = inactive; · = not tested or not shown. A portion of the library; rates above refer to the full screens.

SMILES	B2AR ag	FGF22 binding	ALR H2O2 inh	HNF4A DNA FP	Ecoli rRNA inh	Ecoli rRNA inh OD600	Ecoli rRNA inh RFP	E coli growth	UCH37 DUB inh
COc1ccc(OC)c(/C=N\NC(=O)c2ccc(=O)n(C)c2)c1	-5.9	i	7.4	0.4	21.0	17.1	-0.1	·	·
CC(C)CC1(C)NC(=O)N(CC(=O)NC(=O)Nc2ccc3c(c2)OCCO3)C1=O (stereo not drawn)	2.7	·	-5.4	-0.3	·	·	·	0.779	5.4
COc1cccc(C(=O)NCCS(=O)(=O)NC2CCCC2)c1	-6.3	i	-8.1	-0.9	-5.6	-7.9	-0.3	0.683	2.6
Cc1nc2sc(C(c3cccs3)N3CC(C)CC(C)C3)c(O)n2n1 (stereo not drawn)	12.1	i	5.1	3.3	5.7	-18.6	0.7	0.732	4.6
CC1(C)N=C(N)N=C(N)N1c1ccc(OCC(=O)N2CCOCC2)c(Cl)c1	·	i	·	1.9	6.4	5.2	2.7	·	·
Cc1ccc(NC(=O)Nc2ccc3c(c2)OCO3)c(OC(F)F)c1	-3.9	i	-18.6	2.0	-1.0	-5.3	-3.4	0.656	1.2
O=C(NC(c1ccccc1)c1ccc2ccccc2n1)C1CCN(CCOc2ccc(Cl)cc2)CC1 (stereo not drawn)	·	i	·	3.2	-46.2	-75.3	9.2	·	·
CCN(CC)S(=O)(=O)c1cccc(C(=O)N/N=C(\C)c2cccs2)c1	2.3	i	8.9	4.5	5.0	7.0	0.9	·	·
O=C(COc1ccccc1)Nc1nnc(S(=O)(=O)N2CCCC2)s1	-1.3	i	-13.1	-6.1	-1.1	-6.6	-3.3	0.668	-0.9
CSc1c(C#N)c(N)c(C#N)c2c1COC(C)(C)C2	-6.8	i	-13.1	1.2	8.9	12.1	-2.0	0.695	-108.2
CCc1cc2c(NCCC(=O)O)nc(C)nc2s1	1.1	·	19.2	-2.1	·	·	·	0.757	-38.5
Nn1c(SCC(=O)NCC2CCCO2)nnc1-c1ccco1 (stereo not drawn)	-1.2	i	-7.6	0.9	7.6	8.7	-1.6	0.653	0.7
CNC(=S)NCCc1ccccc1	-1.4	i	0.7	2.5	-8.8	-3.0	-2.6	0.705	1.8
N#CCC(=O)Nc1ccc(C(=O)Nc2cccc(S(=O)(=O)N3CCCC3)c2)cc1	·	i	·	1.4	2.1	6.8	2.8	·	·
COc1ccc(Cc2nnc(NC(=O)c3cc(OC)cc(OC)c3)s2)cc1	-11.8	i	-0.9	-0.1	3.3	-5.9	1.9	0.7	1.4
O=C(Nc1ccc(CN2CCOCC2)cc1)c1ccc(Br)cc1	-4.4	i	1.8	-5.3	-3.1	-0.1	-1.5	0.705	-0.2
COc1ccc(Cl)cc1NC(=S)NN1CCOCC1	-4.0	i	3.5	-0.1	-0.3	1.5	-5.6	0.643	4.6
Cc1cc(CN(C)C(=O)c2ccc(OC3CCN(CCc4ccccc4)CC3)cc2)on1	-9.4	i	-0.5	0.8	0.6	2.5	-0.3	0.706	-1.8
O=C(O)C1=C[C@H](c2csc3ccccc23)C[C@H](OCc2ccc(CO)cc2)O1	-1.6	i	19.8	-0.1	-16.9	-13.4	1.2	·	-0.4
COc1cc(OC)c(OC)cc1CN1CCN(Cc2ccc(SC)cc2)CC1	-6.4	i	-1.4	-3.2	10.4	11.1	0.8	0.656	3.7
CCOc1ccc(OCc2ccc(C(=O)N3N=C(C(F)F)CC3(O)C(F)F)o2)cc1 (stereo not drawn)	3.1	i	-13.7	-4.5	-13.9	-16.2	-9.5	0.71	2.6
O=C(C1=COCCO1)N1CCN(S(=O)(=O)c2cccc(F)c2)CC1	2.1	i	-3.0	2.9	1.6	1.3	-1.5	0.669	-1.1
CC(C)CCN(C(=O)c1csnn1)C(C(=O)NC1CCCC1)c1ccccc1 (stereo not drawn)	7.8	i	-17.8	-4.8	-0.5	9.2	-1.5	0.677	-3.6
Nc1ccn(Cc2ccc(F)cc2)n1	2.3	i	-3.3	0.0	2.9	-1.0	-2.4	0.701	-0.6
O=C(CN1CCN(Cc2ccccc2Cl)CC1)N/N=C/C=C\c1ccccc1[N+](=O)[O-]	-13.6	·	-3.4	-0.4	·	·	·	·	·
CN(C(=O)CCN1CCCO1)C1CCCN(Cc2ccccc2F)C1 (stereo not drawn)	-2.6	i	·	0.5	1.5	1.2	-2.6	0.697	3.6
CCN(CC)CCNC(CC(=O)Nc1ccc(Cl)cc1Cl)C(=O)O (stereo not drawn)	-4.7	·	·	-1.9	·	·	·	0.702	2.4
Cc1cc(C)c(SCCc2ccncc2)c(C)c1	11.7	i	-8.1	-3.0	-12.1	-6.0	-3.2	0.667	2.5
FC(F)(F)c1nnc(Nc2ccc(Cl)cc2)s1	-2.5	i	6.4	0.6	-41.0	-52.8	-9.2	0.522	5.6
CCOC(=O)/C=C/c1nc(C(=O)OCC)c(C)c(=O)[nH]1	15.5	i	96.9*	1.5	3.6	8.6	0.5	·	·
COc1ccc(N2C(=O)CC(N3CCCC4CCCCC43)C2=O)cc1 (stereo not drawn)	8.7	·	-2.2	3.0	·	·	·	0.684	-2.2
Cc1ccc(S(=O)(=O)NNC(=O)c2sc(NS(=O)(=O)c3ccccc3)nc2C)cc1	-4.3	i	-2.2	-3.6	-4.8	-3.0	-4.8	0.659	1.1
CCC(=O)N(CC)c1nc(-c2cc(OC)ccc2OC)cs1	12.1	i	·	2.1	11.4	2.1	5.2	0.707	3.1
C=CCN1C(=O)C2(OCCCO2)c2cc(CCCC)ccc21	4.4	i	0.7	-2.9	-12.2	-8.0	0.4	0.646	-0.6
O=C(COc1ccc(Cl)cc1Cl)N1CCCN(C(=O)COc2ccc(Cl)cc2Cl)CC1	-0.5	·	-2.2	-2.4	·	·	·	0.687	4.5
Cc1oc(-c2cc(F)ccc2F)nc1CN1CCCN(C(=O)c2ccco2)CC1	-9.4	i	6.0	1.7	10.8	-5.1	1.8	0.718	0.9
O=C(NCC1CCN(Cc2ccc(F)cc2)CC1)C1CCCN(c2ncnc3c2nc2n3CCCCC2)C1 (stereo not drawn)	-0.6	i	-0.5	0.7	1.1	-0.8	0.1	0.706	6.9
c1ccc(Nc2ccccc2Nc2ccccn2)nc1	-7.5	i	88.7*	-5.7	90.0	-11.5	58.2	0.708	-1.5
Cc1ccc(C)c(N2CCN(C(=O)CCC(=O)Nc3nnc(CC(C)C)s3)CC2)c1	-1.6	i	-1.5	1.8	14.1	1.9	-7.1	0.714	6.2
CC(=O)N1CCN2C(=O)C1CCCC(=O)c1cc(C)ccc12 (stereo not drawn)	9.4	·	-7.4	0.2	·	·	·	0.75	-3.1
Cc1cccc(C)c1-n1nnnc1SCC(=O)N1CCNC1=O	-7.0	i	·	0.3	0.5	4.0	-3.2	0.674	0.7
O=C(NCCCn1ccnc1)c1cc(Cl)cc(Cl)c1	-7.7	i	-9.6	0.8	4.7	13.1	-2.6	0.679	0.3
Cc1cc(C(=O)Nc2ccccc2N2CCCCC2)no1	-1.4	i	3.6	2.5	-14.0	-6.7	-5.0	0.641	2.0
Cc1ccc2nc(Nc3ccccc3O)nc(-c3ccccc3)c2c1	9.1	i	-3.7	-2.9	8.5	5.2	-2.1	0.695	1.3
CN1CCN(C(=O)C(C(=O)c2ccc(F)cc2)n2ccccc2=O)CC1 (stereo not drawn)	1.2	·	·	-0.2	·	·	·	0.656	0.9
Nc1c(C(=O)CSc2ncccn2)c(=O)[nH]c(=O)n1C1CC1	-3.0	i	2.5	-2.4	7.0	12.6	0.6	0.708	2.5
Cc1c(Cl)cnc(NC(=O)COC(=O)c2ccc3c(c2)OCO3)c1Cl	-9.7	i	3.0	1.3	12.7	16.7	1.3	0.692	1.8
COc1ccc2c(c1)c1ncn(CCN3CCNCC3)c(=O)c1n2C	0.8	i	-6.2	-1.9	-7.2	-2.2	-13.6	0.752	i
COc1cc(NCc2ccccc2O)c2ncccc2c1	-3.2	i	·	1.1	-10.3	-5.5	-0.1	0.619	-3.6
Cc1c(/C=N/NC(=O)CNc2ccccc2)c2ccccn2c1C(=O)c1ccc(Cl)cc1	13.2	·	-1.7	2.8	·	·	·	·	·

Another view of some results above:
molecule | B2AR ag | FGF22 binding | ALR H2O2 inh | HNF4A DNA FP | Ecoli rRNA inh | Ecoli rRNA inh OD600 | Ecoli rRNA inh RFP | E coli growth | UCH37 DUB inh
c1ccc(Nc2ccccc2Nc2ccccn2)nc1 | -7.5 | i | 88.7* | -5.7 | 90.0 | -11.5 | 58.2 | 0.708 | -1.5
Cc1ccc(C)c(N2CCN(C(=O)CCC(=O)Nc3nnc(CC(C)C)s3)CC2)c1 | -1.6 | i | -1.5 | 1.8 | 14.1 | 1.9 | -7.1 | 0.714 | 6.2
CC(=O)N1CCN2C(=O)C1CCCC(=O)c1cc(C)ccc12 (stereo not drawn) | 9.4 | · | -7.4 | 0.2 | · | · | · | 0.75 | -3.1
Cc1cccc(C)c1-n1nnnc1SCC(=O)N1CCNC1=O | -7.0 | i | · | 0.3 | 0.5 | 4.0 | -3.2 | 0.674 | 0.7
O=C(NCCCn1ccnc1)c1cc(Cl)cc(Cl)c1 | -7.7 | i | -9.6 | 0.8 | 4.7 | 13.1 | -2.6 | 0.679 | 0.3
Cc1cc(C(=O)Nc2ccccc2N2CCCCC2)no1 | -1.4 | i | 3.6 | 2.5 | -14.0 | -6.7 | -5.0 | 0.641 | 2.0
Cc1ccc2nc(Nc3ccccc3O)nc(-c3ccccc3)c2c1 | 9.1 | i | -3.7 | -2.9 | 8.5 | 5.2 | -2.1 | 0.695 | 1.3
CN1CCN(C(=O)C(C(=O)c2ccc(F)cc2)n2ccccc2=O)CC1 (stereo not drawn) | 1.2 | · | · | -0.2 | · | · | · | 0.656 | 0.9
Nc1c(C(=O)CSc2ncccn2)c(=O)[nH]c(=O)n1C1CC1 | -3.0 | i | 2.5 | -2.4 | 7.0 | 12.6 | 0.6 | 0.708 | 2.5
Cc1c(Cl)cnc(NC(=O)COC(=O)c2ccc3c(c2)OCO3)c1Cl | -9.7 | i | 3.0 | 1.3 | 12.7 | 16.7 | 1.3 | 0.692 | 1.8
COc1ccc2c(c1)c1ncn(CCN3CCNCC3)c(=O)c1n2C | 0.8 | i | -6.2 | -1.9 | -7.2 | -2.2 | -13.6 | 0.752 | i
COc1cc(NCc2ccccc2O)c2ncccc2c1 | -3.2 | i | · | 1.1 | -10.3 | -5.5 | -0.1 | 0.619 | -3.6

Later entries.
SMILES	B2AR ag	FGF22 binding	ALR H2O2 inh	HNF4A DNA FP	Ecoli rRNA inh	Ecoli rRNA inh OD600	Ecoli rRNA inh RFP	E coli growth	UCH37 DUB inh
CSc1ccc(CN(C)C(=O)CSCC(=O)Nc2ccc(C)cc2)cc1	7.3	i	-2.7	2.1	-14.2	-29.0	-2.3	0.684	0.5
CCCCc1ccc(NC(=O)c2ccc(NS(C)(=O)=O)cc2)cc1	-1.2	i	-7.8	-2.0	10.8	-4.4	-5.4	0.676	1.5
Clc1cccc(Cl)c1OCCOCCNCc1ccccc1	7.4	i	-18.9	-4.6	3.7	-1.2	1.4	0.647	5.3
CCOc1ccc(CCNC(=O)Cc2nn[nH]n2)cc1OCC	2.6	·	-4.8	3.4	·	·	·	0.673	1.6
C=CCn1c(N2CCN(c3ccc(OC)cc3)CC2)nc2c1c(=O)n(C)c(=O)n2C	2.0	i	·	-4.7	-19.1	-19.1	-13.4	0.688	2.0
CCCNC(=O)C(Cc1ccccc1)NC(=O)c1ccc(-c2ccccc2)cc1 (stereo not drawn)	6.1	i	4.4	1.3	2.5	1.1	3.1	0.668	2.6
